# Screens (PubChem BioAssay)
# PINK1 modulator – A Quantitative High throughput Screen to Identify Chemical Modulators of PINK1 Expression; PINK1 immunofluorescence, high-content cytometry, 24 h; Potency, µM (top dose mostly 76.6 µM), without a hit: at the top dose activation (PINK1 increase), most hits filed as activators; 410,000 tested, 0.2% active; active = well fitted activation curve with a large enough effect; inconclusive = small, poorly fitted or top-dose-only effect; inactive = flat fitted curve, though single readings scatter; cell line not stated here;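 note: potency is the fitted concentration of half-maximal effect; % of control where 0% means no effect; nearly all actives have a fitted effect of over 65% in size; a mitochondrial uncoupler was the plate control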
#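 Fluorescence from anti-PINK1 antibody, together with nuclear and cell stains, was scanned on a laser-scanning cytometer. Before staining, stable-line cells were incubated 24 hours with compounds at 5 concentrations; primary antibody 12 h at 10 degrees C.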
# D2 agonist – Beta-Arrestin HTS for Positive Allosteric Modulators of the Human D2 Dopamine Receptor: Agonists; activation, % (test concentration not listed); 360,000 tested, 0.084% active; DiscoveRx PathHunter D2 beta-arrestin, luminescence, 90 min; 100% = 57 uM dopamine signal; in the data active = activation above about 40%; inconclusive = about 15% to 40%; inactive = below about 15%; note: compound concentration not given in the record; the text of the record calls up to 30% inactive
# Target sequence (P14416 whole entry, looked up): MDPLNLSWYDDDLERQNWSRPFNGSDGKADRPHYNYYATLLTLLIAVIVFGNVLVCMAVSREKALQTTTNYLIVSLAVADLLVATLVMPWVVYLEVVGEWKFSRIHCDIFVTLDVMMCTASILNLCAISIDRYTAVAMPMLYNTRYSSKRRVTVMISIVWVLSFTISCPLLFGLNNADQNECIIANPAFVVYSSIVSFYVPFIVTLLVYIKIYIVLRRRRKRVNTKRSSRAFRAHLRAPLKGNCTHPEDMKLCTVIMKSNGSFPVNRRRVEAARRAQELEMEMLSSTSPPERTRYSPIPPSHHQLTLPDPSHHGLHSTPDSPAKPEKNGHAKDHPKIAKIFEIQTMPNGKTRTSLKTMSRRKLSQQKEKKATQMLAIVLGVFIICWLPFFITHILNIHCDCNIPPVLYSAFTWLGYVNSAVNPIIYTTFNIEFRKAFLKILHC
#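 DiscoveRx PathHunter D2 beta-arrestin cells (2,100/well) attached overnight, then compound-stimulated 90 min at 37 C in HBSS/10 mM HEPES/0.1% Tween-20 buffer; beta-galactosidase complementation read by luminescence after 1 h at ambient temperature. Dopamine 57 uM final (EC100) as control.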
# gsp agonist – qHTS for Agonist of gsp, the Etiologic Mutation Responsible for Fibrous Dysplasia/McCune-Albright Syndrome: qHTS | gsp mutant cells, cAMP HTRF, 30 min; control for the full effect not named in the record | Potency, µM (series often up to 76.9 µM), inactives show at the highest dose activation (cAMP increase), usual class: activators | AID 624287, 2012 | 340,000 tested, 0.13% active; active = well fitted activation curve with a large enough effect; inconclusive = small, poorly fitted or top-dose-only effect, or another doubt; inactive = no such curve, though single readings can be large or run the other way; cell line not stated here;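 note: phosphodiesterase inhibitor Ro 20-1724 added with compounds to block cAMP breakdown; potency is the fitted concentration of half-maximal effect; nearly all actives have a fitted effect of over 60% in size; about a fifth of the inactives were tested at one dose only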
#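 Cells in DMEM/10% FBS with G418 were pretreated with compounds in DMSO plus […] (300 uM stock) for 30 min at 37C. cAMP was measured by HTRF (cAMP-d2 plus anti-cAMP antibody-K) after 30 min at room temperature.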
# Sfp inh – qHTS Assay for Inhibitors of Bacillus subtilis Sfp phosphopantetheinyl transferase (PPTase); AID 1490, 2009; Potency, µM, for the others: max response, negative = inhibition, hits mostly inhibitors; 310,000 tested, 3.5% active; Biochemical Sfp PPTase activity, qHTS; active = well fitted inhibition curve with a large enough effect; inconclusive = small, poorly fitted or top-dose-only effect, or another doubt; inactive = no such curve, though single readings can be large or run the other way;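 note: the enzyme is Sfp with the accession as filed and its product quenches rhodamine fluorescence; potency is the fitted concentration of half-maximal effect; 0% = enzyme reaction without inhibitor and -100% = no enzyme wells; top concentration of the series not given in the record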
#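 Fluorescence-quenching assay with 15 nM Sfp, 5 uM rhodamine-CoA and 12.5 uM BHQ-2-labelled ybbR peptide in pH 7.6 Hepes/MgCl2 buffer. Enzyme was pre-incubated with compound for 15 min at room temperature. Rate was taken from the 30-min fluorescence change (525/598 nm).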
# Menin MLL FP FL – qHTS Assay for Inhibitors Targeting the Menin-MLL Interaction in MLL Related Leukemias: Competition With Fluorescein Labeled MLL-derived Peptide | Fluorescence polarization, fluorescein-MLL peptide displacement from menin | FP activity change, % at 61.4 µM | AID 1766, 2009 | 290,000 tested, under 10 active; inconclusive = falling polarisation curve, or a change in total fluorescence; inactive = total fluorescence flat and polarisation flat or rising; no compound was filed as active; the % refers to the polarisation; negative = inhibition;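 note: % of control where 0% means no effect; inhibitors lower the polarisation; unlabelled MLL peptide was the positive control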
# gsp antag – qHTS for Antagonists of gsp, the Etiologic Mutation Responsible for Fibrous Dysplasia/McCune-Albright Syndrome: qHTS. gsp-mutant cells, cAMP HTRF, 30 min; control for the full effect not named in the record. 340,000 tested, 0.4% active. Potency, µM (doses to about 76.9 µM), for inactives: top-dose activity change, negative = inhibition, most hits filed as inhibitors; active = falling curve of any shape with a large fitted effect; inconclusive = falling curve, mostly with a smaller effect; inactive = flat or rising curve; cell line not stated here;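 note: intracellular cAMP measured with PDE inhibitor Ro 20-1724 present during compound exposure; potency is the fitted concentration of half-maximal effect; % is set by controls: 0 for no effect and ±100 for the full control effect; nearly all actives have a fitted effect of over 65% in size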
#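 Cells in G418 medium, seeded 16-24 h, 37C; buffer exchange to DPBS + 1 mM CaCl2, 0.5 mM MgCl2, 0.05% BSA; cpds in DMSO + […] (300 uM stock), 30 min 37C; HTRF cAMP detection.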
# ClpP mod – qHTS Assay for Activators of ClpP | 340,000 tested, 1.9% active | purified B. subtilis ClpP, FRET peptide cleavage, 20 min | AID 651965, 2013 | Potency, µM (doses to about 57.5 µM), for inactives: top-dose activity change, negative = active | ATP-dependent Clp protease proteolytic subunit (Bacillus subtilis (strain 168)), P80244; active = well fitted falling curve with a large enough effect; inconclusive = small, poorly fitted or top-dose-only effect; inactive = no such curve, though single readings can be large or run the other way; note: potency is the fitted concentration of half-maximal effect; the source files actives as falling curves though it sought activators and does not explain the sign; nearly all actives have a fitted effect of over 65% in size; many hits overshoot -100%
# Target sequence (P80244 whole entry, looked up): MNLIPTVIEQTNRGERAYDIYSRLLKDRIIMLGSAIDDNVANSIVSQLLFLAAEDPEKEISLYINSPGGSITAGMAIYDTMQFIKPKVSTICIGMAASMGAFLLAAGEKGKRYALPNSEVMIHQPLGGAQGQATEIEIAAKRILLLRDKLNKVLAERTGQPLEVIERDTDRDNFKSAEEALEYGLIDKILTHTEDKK
#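 Purified B. subtilis ClpP, 10 microg/mL final in Tris/HCl pH8 with KCl, BSA, glycerol and Tween-20, cleaved an Abz/nitrotyrosine-quenched decapeptide. Fluorescence (ex 320, em 430) was read at 0 and 20 min at room temperature. Delta was normalized to 5.8 microM ADEP and DMSO/no-enzyme controls.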
# An asterisk follows results filed as active; u = inconclusive; x = no result given; & = joins results of further samples; [ ] = dose if it differs, or a comment.
mol,PINK1 modulator,D2 agonist,gsp agonist,Sfp inh,Menin MLL FP FL,gsp antag,ClpP mod
CCN1CCN(Cc2ccc(NC(=O)Nc3ccc(OC)cc3)cc2)CC1,0.3%,-2.6,4%,9%,-0.4,2%,0.5%
CCS(=O)(=O)c1ccc2oc(SCC(=O)NCCc3ccc(OC)cc3)nc2c1,-0.6%,-2.9,-11%[15.4 µM],17%,2.6,2%,-2.3%
S=C(Nc1ccccc1Cl)NC1CCN(Cc2ccccc2)CC1,1.9%,0.8,-3%[15.4 µM],7%,0.5,2%,-5.4%
CCOC(=O)c1cc(-c2cccs2)[nH]n1,0.0%,0.8,-5%[15.4 µM],-6%,-3.0,6%,x
CC(C)(C)NCc1cc2ccccc2[nH]c1=O,-0.3%,-1.3,1%,13%,6.5,8%,-18%
O=c1cc(CO)oc(C(Nc2cccc([N+](=O)[O-])c2)c2ccccn2)c1O (stereo not drawn),0.4%,-7.0,2%,20µM*,-2.6,-4%,0.3%
CC(Cc1ccccn1)NC(=O)c1ccc(OC2CCN(Cc3ccccn3)CC2)cc1 (stereo not drawn),0.0%,-1.4,-5%,-3%,x,1%,-1.3%
COc1ccc(C(C)=O)cc1CSc1ccccn1,0.3%,1.5,3%[15.4 µM],2%,-0.3,3%,-3.8%
CN(C)N=C1c2cc(S(=O)(=O)N3CCOCC3)ccc2-c2ccc(S(=O)(=O)N3CCOCC3)cc21,-2.6%,-2.9,4%,15%,0.0,-8%,1.4%
CCc1cc2c3c(c1)C(C)CC(C)(C)N3C(=O)/C2=C1\SC(=O)NC1=O (stereo not drawn),-1.3%,-3.3,13%[15.4 µM],6%,-0.5,u,x
O=C(Nc1nc2ccccc2c(=O)[nH]1)c1ccccc1SCc1ccccc1,2.1%,4.1,3%,-7%,2.4,-20%,x
COc1ccc(C2=C3C(=O)OCC3Cc3ncn(Cc4ccccc4)c32)cc1 (stereo not drawn),0.3%,-0.7,x,x,x,-2%,-3.4%

mol,PINK1 modulator,D2 agonist,gsp agonist,Sfp inh,Menin MLL FP FL,gsp antag,ClpP mod
Cc1nc2cc(C(=O)NCCN3CCOCC3)ccc2n1-c1ccc(F)cc1F,-1.2%,-2.9,10%,-5%,-6.8,19%,-16%
COc1ccc(N2CCN(C(=O)COC(=O)[C@@H](NC(=O)c3c(F)cccc3F)C(C)C)CC2)cc1,-0.8%,6.0,19%,x,x,2%,-3.6%
Cn1c(=O)n(CC(=O)O)c(=O)c2c1nc1n2CCCN1Cc1ccccc1,0.6%,-6.1,-4%,13%,3.9,-5%,-0.8%
COc1ccc(CCNC(=S)Nc2ccc(C(C)C)cc2)cc1,0.4%,-4.4,2%,u,1.7,-13%,-4.5%
Cc1onc(-c2c(Cl)cccc2Cl)c1NC(=O)NC1CCSC1 (stereo not drawn),-0.1%,3.1,23%,28%,7.9,3%,x
COc1cccc(CNCc2ccco2)c1O,0.9%,2.0,-2%,u,6.4,2%,x
CCCC(C(=O)NCCC(C)C)N(Cc1ccccc1)C(=O)c1snc(C(N)=O)c1N (stereo not drawn),2.8%,-2.1,-17%,14%,-0.6,-15%,-16%
O=C(Nc1ccc(NC(=O)c2cccs2)cc1)c1ccc2ccccc2c1,17%,1.1,1%,-1%,6.0,6%,x
COc1ccc(NS(=O)(=O)c2ccc(-c3coc(C)n3)cc2)c(OC)c1,6.1%,-2.7,-3%,-6%,x,3%,1.7%
CCCC(=O)NC(C)C(c1cccs1)N1CCN(C)CC1 (stereo not drawn),7.1%[38.3 µM],-2.2,23%,5%,0.4,4%,0.3%
O=C(Nc1nc(COc2ccccc2)cs1)c1ccccc1F,8.2%,-3.7,4%,19%,-1.5,-4%,645%
CC1CC(C)(C)NC(=S)N1CCCC(=O)NCCc1ccc(Cl)cc1 (stereo not drawn),-0.5%,-15,11%[15.4 µM],1%,6.8,8%,-3.1%

mol,PINK1 modulator,D2 agonist,gsp agonist,Sfp inh,Menin MLL FP FL,gsp antag,ClpP mod
CCCC(=O)NC(c1ccc(OC)cc1)c1ccc2cccnc2c1O (stereo not drawn),0.1%,-2.8,-27%[15.4 µM],1%,-2.4,-16%,x
CC(C)N(C(=O)[C@H]1C[C@H](CC(=O)NCCCN(C)C)C(=O)N2CCc3c([nH]c4cc(CCC(=O)N(C)C)ccc34)[C@]12C)C(C)C,-1.2%,-0.7,x,x,x,2%,-2.2%
COc1cccc(CN(C)C(=O)COc2ccc(C(=O)c3ccc(Cl)cc3)cc2)c1OC,-0.2%,-4.2,6%,5%,0.6,-18%,x
O=C(CN1C(=O)NC2(CCCC2)C1=O)OCc1ccc(F)cc1,-1.3%,-1.9,25%[15.4 µM],x,x,6%,x
O=c1oc2ccccc2c2c1nnn2CCO,1.5%,-4.3,4%[15.4 µM],-10%,-0.1,-14%,x
COc1ccc(-c2nnn(CC(=O)N(CC(=O)NC3CCCC3)Cc3ccco3)n2)cc1OC,1.3%,-3.0,-1%[15.4 µM],14%,3.4,6%,-5.1%
CC1CCCN(C2(O)C(=O)Nc3ccc([N+](=O)[O-])cc32)C1 (stereo not drawn),-0.6%,-2.2,-25%,3%,4.9,4%,0.4%
O=C(/C=C/c1ccco1)NC(=S)Nc1cccc(C(=O)O)c1,3.5%,-3.4,u,79µM*,u,-7%,-2.5%
O=C(NC1CCCCC1)N(CCO)Cc1cc2cc3c(cc2[nH]c1=O)OCCO3,x,-0.7,19%,11%,0.9,3%,u
COc1cccc(NC(=O)Nc2cccn(Cc3ccc(C)cc3)c2=O)c1,3.7%,5.3,-14%,13%,-4.6,-27%,2.9%
CN(CC(=O)Nc1ccc(F)cc1)C(=O)c1ccccc1Sc1ccccc1C#N,-1.7%,-1.7,5%,x,x,-18%,0.5%
CN(/N=C/c1cc(Cl)cc(Cl)c1O)C(=S)NC(C)(C)C,u,7.4,13%,-5%,6.2,-9%,-15%

mol,PINK1 modulator,D2 agonist,gsp agonist,Sfp inh,Menin MLL FP FL,gsp antag,ClpP mod
O=C(CSc1nc2c([nH]c3ccccc32)c(=O)n1-c1cccc(Cl)c1)N1CCOCC1,4.5%&-4.3%,-3.2,0%,u,6.3,-16%,u
CCc1cc2cc3c(cc2nc1SCC(=O)Nc1c[nH]c(=O)[nH]c1=O)OCO3,9.6%,-4.4,-28%,-1%,3.1,10%,x
Cc1ccc(N=C2C(=O)Nc3ccc(Br)cc32)cc1,4.4%,-15,30%,4%,-15,8%,x
COc1cccc(C2C(C(=O)c3cc4ccccc4o3)=C(O)C(=O)N2c2cc(C)on2)c1 (stereo not drawn),0.1%,-0.2,u,23%,x,6%,-0.2%
C/C(CC(=O)Nc1ccccn1)=N\NC(=O)C(=O)Nc1ccccc1C,0.6%,-0.4,3%,-8%,-3.3,1%,95%
COc1ccc(C(=O)N(Cc2ccccc2)c2cccc(C)c2)cc1,-1.1%,-1.5,u,13%,x,-14%,-0.4%
CN(C)S(=O)(=O)c1ccc(C(=O)N2CCCC2c2nc3ccccc3s2)cc1 (stereo not drawn),-0.6%,-2.7,-16%,3%,1.2,-3%,0.6%
CNc1ncc(C(=O)c2ccc(-c3ccccc3)cc2)s1,2.6%,-6.9,-10%,-11%,-0.2,2%,-13%
CN(C)S(=O)(=O)Nc1cc(F)cc(F)c1,-1.7%,2.9,-22%[15.4 µM],-6%,0.3,14%,x
O=C(NNc1cc(N2CCOCC2)nc(N2CCOCC2)n1)c1ccc(Cl)cc1Cl,u,-3.7,-9%[15.4 µM],1%,-2.9,5%,-3.8%
Cc1cccc(NC(=O)CSc2nc(N)cc(N)n2)c1,0.2%,-1.7,-49%[inhibitor],15%,1.9,-3%,-1.5%
O=C(NC1CCCCC1)c1ccc(S(=O)(=O)NCc2ccco2)cc1,38%[38.3 µM],-0.7,-3%,-4%,1.1,12%,0.8%

# Already shown: entries from further up.
mol,PINK1 modulator,D2 agonist,gsp agonist,Sfp inh,Menin MLL FP FL,gsp antag,ClpP mod
Cc1cccc(NC(=O)CSc2nc(N)cc(N)n2)c1,0.2%,-1.7,-49%[inhibitor],15%,1.9,-3%,-1.5%
O=C(NC1CCCCC1)c1ccc(S(=O)(=O)NCc2ccco2)cc1,38%[38.3 µM],-0.7,-3%,-4%,1.1,12%,0.8%

# Later entries
mol,PINK1 modulator,D2 agonist,gsp agonist,Sfp inh,Menin MLL FP FL,gsp antag,ClpP mod
Cc1cccc2[nH]c(-c3ccc(NC(=O)c4ccco4)cc3)nc12,0.2%,2.2,-12%,-11%,2.7,-10%,-19%
COC1=C/C(=C/c2c(N)n3nc(CC(=O)N4CCCC4)sc3nc2=O)C=CC1=O,-0.4%,-9.2,3%,4%,u,-19%,-0.6%
Cc1cc(Nc2ncc(Cl)cc2Cl)n(-c2ccccc2C)n1,6.4%,-3.7,20%,-63%,-1.1,-15%,-11%
O=C(Oc1ccc(Nc2ncnc3ccccc23)cc1)c1cccnc1,-1.1%,1.3,13%,16%,-2.9,-27%,1.2%
O=C(Nc1ccc(F)cc1Cl)c1ccc2c(=O)n3c(nc2c1)CCCCC3,6.0%,-4.8,u,7%,5.3,17%,12%
C[C@H](CO)N1C[C@H](C)[C@@H](CN(C)C(=O)Nc2cccc(F)c2)Oc2ncc(Br)cc2C1=O,-0.2%,-2.1,-195%[inhibitor],x,x,x,1.0%
Cn1c(=O)n(-c2cccc(Cl)c2)c(=O)n1C,26%[38.3 µM],-1.4,6%,15%,-0.1,15%,-0.3%
CN(Cc1ccccc1)C(=O)CCC1CCN(C(=O)c2ccccc2C(F)(F)F)CC1,0.9%,3.1,-1%,-11%,x,-4%,2.0%
